# Screens from PubChem BioAssay.
# HTT prom inh = Primary qHTS for Identification of Small Molecule Inhibitors of Huntingtin Promoter Activity; Potency, µM (titrated, usually from 57.5 µM), for inactives: top-dose activity change, negative = inhibition, hits mostly inhibitors; 48,000 compounds, 0.93% hits; HEK293 HTT promoter firefly luciferase reporter (activity 0% = vehicle and -100% = no light), 24 h; AID 1508623, 2021; active = well fitted inhibition curve with a large enough effect; inconclusive = small, poorly fitted or top-dose-only effect; inactive = no such curve, though single readings can be large or run the other way; also: nearly all actives have a fitted effect of over 50% in size
#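 Firefly luciferase signal from promoter-reporter HEK293 cells was scaled between vehicle (0%) and zero RLU (-100%). Compounds were tested at final concentrations of up to 57.5 uM over 24 h at 37 degrees C. PTC124 at 50 uM final served as control inhibitor.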
# PMP22 txn prim = Cell-based coincidence reporter assay to measure PMP22 gene transcription in S16 Pmp22-F2sN cells - Primary screen. Potency, µM (highest dose often 57.5 µM), for the others: top-dose activity change, negative = inhibition, usual class: inhibitors. 43,000 compounds, 2% hits. S16 Pmp22-F2sN Schwann cells (luciferase reporters placed in the Pmp22 gene), FLuc/NLuc coincidence luminescence, 24 h; active = clear falling dose curves in both reporters; inconclusive = both reporters move, but less clearly or upward; inactive = either reporter flat; the % is the NLuc reporter signal; also: % is scaled to controls: 0 for no effect and ±100 for the full control effect; some results filed as inactive show a strong effect at the top dose
#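 Schwann cells carrying the coincidence reporter were exposed to library compounds for 24 h at 37C, then lysed and read for FLuc and, after quenching, NLuc luminescence on a CCD imager.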
# * hit, by the source's call; ? = inconclusive; nt = no result given; & = joins results of further samples; [ ] = dose if it differs, or a comment. Potency is read from the fitted curve at half-maximal effect.
# Second line of a record – PMP22 txn prim | HTT prom inh
> COc1cccc(CNC(=O)CN2C(=O)CSc3ccc(S(=O)(=O)N4CCCC4)cc32)c1
  -2.1% | 2.2%
> Cc1cn2c(-c3cn[nH]c3)cnc2c(Nc2ccc(C(=O)N3CCNCC3)cc2F)n1
  nt | ?
> CCCc1ccc(OC(C)C(=O)Nc2sc3c(c2C(=O)OC)CCCCC3)cc1 (centres undefined)
  7.0% | -14.1%
> O=C(NC1CCCCC1)c1ccc(CSc2nc3ccncc3n2Cc2ccccc2)cc1
  -18.2% | -21.4%
> Cc1ccccc1CNC(=O)c1ccc(CSc2nc3cccnc3n2Cc2ccccc2)cc1
  ? | -30.3%
> O=C(CC1N=C2c3ccccc3N=C(SCc3ccc(Cl)cc3)N2C1=O)NCc1cccs1 (centres undefined)
  -10.9% | -5.9%
> COc1ccc(-n2cc(C(=O)NCc3cccc(OC)c3)c3ccccc3c2=O)cc1
  ? | 3.0%
> COc1ccc(N2CCN(S(=O)(=O)c3ccc(-c4cnc(C5CC5)o4)cc3)CC2)cc1
  -14.9% | -25.5%
> COc1ccc(-c2noc(-c3ccc(N4CCCCC4C)c([N+](=O)[O-])c3)n2)cc1OC (centres undefined)
  0.9% | -5.2%
> Cc1ccccc1CSc1ncc(Cl)c(C(=O)NCc2ccccc2)n1
  -7.6% | -6.8%
> CC1CCC(NC(=O)c2ccc3c(c2)N(Cc2cccc(F)c2)C(=O)c2ccccc2S3)CC1 (centres undefined)
  -7.6% | 28.7%
> Cc1ccccc1-c1noc(-c2nnn(-c3ccccc3C)c2N)n1
  5.9% | 78.5%[activator]
> COc1cccc(NC(=O)CCc2c(C)nc3c4cccnc4nn3c2C)c1
  -22.0% | -20.7%
> CCOC(=O)Cc1c(C)nc2cc(-c3ccc(C(C)(C)C)cc3)nn2c1C
  ? | -8.8%
> Cc1nc2ncnn2c(C)c1CCC(=O)NCc1cccc(Cl)c1
  ? | -3.5%
> Cc1cc(Br)ccc1NC(=O)CN1C(=O)c2cccnc2Sc2ccccc21
  11.5% | -20.6%
> CCOC(=O)c1cc(-c2ccccc2)n(CC(=O)NC2CCC(C)CC2)c1C (centres undefined)
  -9.4% | -0.8%
> COC(=O)C(C)Sc1ccc2nnc(CCNS(=O)(=O)c3ccc(C)cc3)n2n1 (centres undefined)
  0.4% | -5.7%
> COCCCNc1nc2c(S(=O)(=O)c3ccc(C)c(C)c3)nnn2c2ccc(Cl)cc12
  -6.2% | -5.5%
> CCOc1ccccc1Nc1sc(C(=O)c2ccc(Cl)cc2)c(N)c1C(=O)NCCc1ccccc1
  ? | -14.6%
> CCOc1ccc2nc(N3CCCC(C(=O)NCc4ccccc4Cl)C3)sc2c1 (centres undefined)
  -3.8% | 32.2%[activator]
> CCOc1cccc(C(=O)Nc2ccc(-c3nc4ncccc4o3)cc2C)c1
  ? | -0.9%
> CC(C(=O)NCc1ccc(Cl)cc1)n1ccc2cc(S(=O)(=O)N3CCCC3)ccc21 (centres undefined)
  ? | ?
> CC(=O)N1CCCc2cc(S(=O)(=O)N3CCCC(C(=O)Nc4cccc(F)c4)C3)ccc21 (centres undefined)
  -91.4% | ?
> CCOC(=O)C1CCN(CC(=O)N2CCCc3c2c(=O)oc2ccc(OCc4ccccc4)cc32)CC1
  -24.6% | -11.6%
> Cc1ccc(CSc2nc3ccc(NC(=O)CC(C)C)cc3s2)cc1
  -7.8% | -11.0%
> Cc1nc2c(-c3ccc(F)cc3)c(C)nn2c(C)c1CCC(=O)N1CCN(c2ccccc2)CC1
  ? | -10.0%
> Cc1ccc(CNC(=O)c2cc(=O)c3cc(C)ccc3o2)cc1
  3.7% | -18.9%[11.5 µM]
> Cc1cccc(OC(=O)CSc2nnc(-c3ccc4c(c3)OCO4)o2)c1C
  ? | -11.2%
> CN(C)c1ccc(CNC(=O)C2CCN(c3nc4ccccc4[nH]3)CC2)cc1
  -10.8% | -4.3%
> Cc1ccc(OC(=O)c2cc(-c3ccc4c(c3)OCCO4)on2)c(C)c1
  11.4% | 9.8%
> Cc1ccc(S(=O)(=O)Nc2cccc(-c3cn4cccc(C)c4n3)c2)cc1
  1.5% | ?
> Cc1ccc(C(=O)O)cc1Nc1nc2ccccc2n2nnnc12
  -9.3% | 61.4%[activator]
> CCCCSc1nnc2[nH]c(=O)cc(C)n12
  0.4% | -12.9%
> CC(C)(C)OC(=O)N1CCC(c2c(C(=O)NCCN3CCc4ccccc4C3)cnn2-c2ccc(F)cc2)CC1
  ? | -30.6%
> CCCCNC(=O)c1[nH]c2ccccc2c1Sc1ccc(C)cc1
  ? | -17.1%
> CCCOC(=O)c1ccc(Nc2nc3ccccc3nc2-n2nc(C)cc2C)cc1
  0.0% | -0.3%
> COc1ccc(NC(=O)CN(c2ccccc2OC)S(C)(=O)=O)c(OC)c1
  11.9% | -1.7%
> COc1cccc(-c2nc3c(c(SCc4ccccc4)n2)Cc2c(CO)cnc(C)c2O3)c1
  ? | 2.5%
> COc1ccc(-c2[nH]c3c(c2-c2c(-n4cccc4)n(C)c(=O)n(C)c2=O)c(=O)n(C)c(=O)n3C)cc1
  4.8% | -2.8%
> Cc1cc(C)c(S(=O)(=O)NCC(c2ccco2)S(=O)(=O)c2ccccc2)c(C)c1 (centres undefined)
  -26.0% | -24.7%
> Cc1cccc(N2CCN(c3ncnc4c3cnn4-c3ccc(Cl)cc3)CC2C)c1 (centres undefined)
  ? | 12.5%
> Cc1cc(Cl)ccc1OCC(=O)N(Cc1ccco1)Cc1ccccc1F
  -15.1% | ?
> Cc1ccc2c(c1)-c1c(cnn1CC(=O)N1CCN(c3ccccc3F)CC1)CO2
  -33.7% | -13.2%
> COc1cc2ncc(C(=O)c3ccc(C)cc3)c(N3CCCCC3)c2cc1OC
  ? | ?
> COc1ccc(NC(=O)N2CCCn3nc(C)cc32)cc1OC
  3.3% | -1.3%
> COc1ccc(-c2nc3c4ccccc4n(CC(=O)Nc4ccc(C(C)C)cc4)c(=O)n3n2)cc1
  -10.7% | 0.0%
> OC(CCN1CCCCC1)(c1ccccc1)c1ccccc1
  nt | -7.1%
> NS(=O)(=O)c1cc(C(=O)O)c(NCc2ccco2)cc1Cl
  nt | 3.8%&0.1%
> CC1(C)CO[C@@H](CC(=O)O)CN1
  nt | 12.1%
> CCCCOC(=O)CCCCCCCCC(=O)OCCCC
  nt | 6.9%
> Cc1ccc2c(CC(=O)Nc3c(C(=O)c4ccc(C)c(F)c4)oc4ccccc34)coc2c1
  -8.5% | -16.9%
> CC(C)CC(=O)Nc1nnc(S(=O)(=O)N2CCCCCC2)s1
  -7.5% | 0.4%
> O=C(CCS(=O)(=O)c1cc(Br)cc2c1N(C(=O)C1CC1)CC2)Nc1ccc(C(F)(F)F)cc1
  -17.7% | -1.6%
> Cc1ccc(NC(=O)CN2C(=O)C(c3ccccc3)=NC2(C)C)cc1C
  ? | 1.3%
> C=CC[N+]1([C@H]2C[C@H]3[C@@H]4CC[C@H]5C[C@H](OC(C)=O)[C@@H](N6CCCCC6)C[C@]5(C)[C@H]4CC[C@]3(C)[C@H]2OC(=O)CC)CCCCC1
  nt | 4.8%
> COc1cc(Cn2c(=O)sc3ccccc32)ccc1OCCC(C)C
  -65.6% | ?
> C[C@@H]1O[C@@H](OC[C@H]2O[C@@H](Oc3c(-c4ccc(O)c(O)c4)oc4cc(O)cc(O)c4c3=O)[C@H](O)[C@@H](O)[C@@H]2O)[C@H](O)[C@H](O)[C@H]1O
  nt | 13.0%
> CCc1ccc(CSc2nc(-c3ccc(OC)cc3)nc3c2Cc2c(CO)cnc(C)c2O3)cc1
  9.4% | -12.7%
> COc1cccc(N2CCN(C(=O)c3cc4c(=O)oc5ccc(C)cc5c4s3)CC2)c1
  -21.3% | -8.7%

# Later entries:
# Second line of a record – PMP22 txn prim | HTT prom inh
> CCCCOc1ccc(C(=O)Nc2ccc(-c3cc4ccccc4oc3=O)cc2)cc1
  -20.8% | ?
> CC(C)N(C(=O)Cn1cc(SCC(=O)Nc2ccccc2F)c2ccccc21)C(C)C
  ? | -29.8%
> CCc1ccc(-n2nc(CO)c(C(=O)NCc3ccccc3OC)n2)cc1
  0.0% | 4.8%
> COc1ccc2c(c1)c(N1CCCC1=O)c(C(=O)Nc1ccc(Cl)cc1C)n2C
  ? | -29.7%
> CCOc1ccc(-c2ccc(NS(=O)(=O)c3ccc(C)cc3)cc2)nn1
  -3.6% | ?
> Cc1ccc(N2CC(NC(=O)/C=C\c3ccc4c(c3)OCO4)CC2=O)cc1C (centres undefined)
  9.0% | ?
> CCC(C(=O)NCCc1ccc(Cl)cc1)n1nc(C)c2c(C)n(-c3ccccc3)nc2c1=O (centres undefined)
  -22.8% | ?
> CCS(=O)(=O)N1CCc2cc(C(=O)Nc3cccc(C)c3C)ccc21
  -16.9% | 23.6%
> CCOc1ccc2nc(NC(=O)c3nc(SCc4ccc(C)cc4)ncc3Cl)sc2c1
  -13.0% | -10.0%
> Cc1ccc(-n2c3nc(=O)n(C)c(=O)c-3cc3ccccc32)c(C)c1
  6.2% | -17.3%
> COc1c(C)c2c(c(O)c1C/C=C(\C)CCC(=O)O)C(=O)OC2
  nt | -20.7%
> Fc1ccc(N2CCN(c3ncnc4c3nc3n4CCCC3)CC2)cc1
  4.5µM* | ?
> CN(C)CCOC1=Cc2ccccc2Sc2ccc(Cl)cc21
  nt | -7.2%
> CCOC(=O)c1oc2ccc(S(=O)(=O)n3nc(-c4ccc(C)cc4)cc3N)cc2c1C
  ? | -11.8%
> CC(C)CNc1nc(Oc2ccc(OCC(N)=O)nn2)nc(N2CCOCC2)n1
  -9.7% | -7.0%
> CC(C)(C)OC(=O)N1CCC(c2c(C(=O)N3CCC(c4ccccc4)C3)cnn2-c2cccc(Cl)c2)CC1 (centres undefined)
  ? | ?
> Cc1cccc(NC(=O)C2CCCN(S(=O)(=O)c3cnc[nH]3)C2)c1C (centres undefined)
  21.2% | -33.6%[11.5 µM]
> Cc1ccccc1OCC(=O)Nc1c(C)ccc2nsnc12
  ? | ?
> N[C@@]1(C(=O)O)CS(=O)(=O)[C@H]2[C@H](C(=O)O)[C@H]21
  nt | -24.0%
> CCc1ccccc1NC(=O)NC(CC)Cn1nnc2ccccc2c1=O (centres undefined)
  4.0% | -0.4%
> COc1ccc2c(Sc3ccc(Cl)cc3)c(C(=O)NCCCN3CCCCC3)[nH]c2c1
  ? | -29.0%
> COC(=O)c1ccc(NC(=O)c2cc(S(=O)(=O)N3CCOCC3)cn2C)cc1
  -3.2% | 1.3%
> COc1ccc(N2CCN(C(=O)c3c(C)oc4ncn(CC(C)C)c(=O)c34)CC2)cc1
  -8.8% | -0.6%
> Cc1ccc(C)c(N2CCN(S(=O)(=O)c3cc(Br)cc4c3N(C(=O)C3CC3)CC4)CC2)c1
  -21.4% | -4.3%
> C=Cc1ccc(CSc2nc(-c3ccccc3C)nc3c2Cc2c(CO)cnc(C)c2O3)cc1
  ? | -11.9%
> COc1ccc(N2CCN(c3oc(/C=C/c4ccccc4OC)nc3C#N)CC2)cc1
  -8.3% | -1.8%
> c1csc(-c2nc3ccccn3c2Nc2ccc3c(c2)OCCO3)c1
  -25.6% | 5.7%
> CCn1cc(C(=O)N2CCN(c3ccccc3OC)CC2)c2cc(OC)c(OC)cc2c1=O
  -13.2% | -4.2%
> CC(=O)c1ccccc1OCC(O)Cn1c(CO)nc2ccccc21 (centres undefined)
  -16.5% | -11.2%
> Cc1nn2c(=O)cc(COC(=O)c3cccc(NC(=O)COc4ccccc4C)c3)nc2s1
  ? | 3.16µM*

# 2 compounds picked at random from the list so far:
# Second line of a record – PMP22 txn prim | HTT prom inh
> CCOc1ccc2nc(NC(=O)c3nc(SCc4ccc(C)cc4)ncc3Cl)sc2c1
  -13.0% | -10.0%
> CCOc1ccc(-c2ccc(NS(=O)(=O)c3ccc(C)cc3)cc2)nn1
  -3.6% | ?

# (list continues)
# Second line of a record – PMP22 txn prim | HTT prom inh
> CCCCN(CC)C(=O)CCCn1c(=O)c2cccn2c2ccccc21
  ? | -6.2%
> O=C(Nc1ccc(Cl)cc1C(F)(F)F)c1cc(S(=O)(=O)N2CCOCC2)ccc1F
  ? | -16.3%
> CC1=C(C(=O)Nc2ccccc2)C(c2ccncc2)n2nc(SCc3ccccc3Cl)nc2N1 (centres undefined)
  -1.3% | -16.0%
> CCCCN(C)CCNC(=O)c1ccc2c(c1)NC(=O)CN2
  ? | -10.5%
> COc1ccccc1CNC(=O)COCc1cc(-c2cccs2)on1
  -18.0% | -26.8%
> Cc1ccc(NC(=O)Cn2c(=O)n(Cc3nc(-c4ccccc4)no3)c(=O)c3cc4c(cc32)OCO4)cc1F
  21.4% | 3.7%
> O=C1C[C@@H](c2ccc(O)cc2)Oc2cc(O)cc(O)c21
  nt | 32.4%
> CCc1cccc(NC(=O)CCc2nc3cccnc3n2Cc2ccc(OC)cc2)c1
  -30.9% | -25.5%
> Cc1cc2oc(C(=O)Nc3cccc(-c4nc5ccccc5o4)c3)c(C)c2cc1Cl
  -0.7% | -11.8%
> CCc1ccccc1NC(=O)Cn1nnc(C(=O)OC)c1C(=O)OC
  -7.5% | -11.5%
> CCc1ccc(NC(=O)CSc2nc3ccccc3c(=O)n2CCC(=O)NC2CCCCC2)cc1
  6.6% | -16.6%
